GIRK2 activ: activators of human GIRK2 potassium channels. G protein-activated inward rectifier potassium channel 2 (Homo sapiens), P48051. HEK293-GIRK2 thallium flux, Thallos fluorescence. calls only for hits at 25 µM. 63,000 compounds, 0.05% hits;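 active = among the strongest 0.2% of first-round signals and kept after retests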;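 note: first round at about 10 µM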
Target sequence (P48051 whole entry, looked up): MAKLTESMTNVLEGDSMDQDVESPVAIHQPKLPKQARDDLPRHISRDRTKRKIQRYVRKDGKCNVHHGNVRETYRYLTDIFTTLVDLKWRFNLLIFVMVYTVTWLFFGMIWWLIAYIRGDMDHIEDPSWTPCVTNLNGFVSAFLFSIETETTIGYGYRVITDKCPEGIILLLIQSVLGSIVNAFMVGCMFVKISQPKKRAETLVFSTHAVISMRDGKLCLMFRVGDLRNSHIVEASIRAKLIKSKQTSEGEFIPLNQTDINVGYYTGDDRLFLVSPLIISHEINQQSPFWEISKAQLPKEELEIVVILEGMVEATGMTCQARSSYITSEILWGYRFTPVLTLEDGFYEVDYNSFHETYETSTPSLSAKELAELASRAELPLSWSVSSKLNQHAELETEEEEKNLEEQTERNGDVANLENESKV
Calls only; i = inactive.

smiles | GIRK2 activ
O=C(Nc1ccc2cn[nH]c2c1)c1nnn(-c2ccc(Br)cc2)n1 | i
O=C(CCCc1ccccc1)N1CCN(Cc2nnnn2-c2ccc(F)cc2)CC1 | i
COCCN1COc2ccc3c(c2C1)O/C(=C\c1ccc(OC)c(OC)c1)C3=O | i
CCC(=O)N1CCCC1c1nc2ccccc2n1CC(=O)N(CC)c1ccccc1 (centres undefined) | i
COc1ccc(Nc2c(C(=O)N3CCSCC3)cnc3nc(C)ccc23)cc1Cl | i
COc1ccc(S(=O)(=O)Nc2nc3ccccc3nc2Nc2ccc(C(C)=O)cc2)cc1 | i
CCN1CCN(S(=O)(=O)c2ccc(F)cc2)CC1 | i
CC1=NN(CCCO)c2nc3c(c(=O)n(Cc4ccc(C)cc4)c(=O)n3C)n2C1 | i
Nc1nc(SCC(=O)Nc2ncn[nH]2)ncc1S(=O)(=O)c1ccc(Br)cc1 | i
CSc1ccc(-c2noc(CN3C(=O)COc4cc(C)ccc43)n2)cc1 | i
COc1cc2c(cc1O)CC[C@@H]1[C@@H]2CC[C@]2(C)[C@@H](O)CC[C@@H]12 | i
Cn1nc(C2CCN(C(=O)CSCc3ccccc3)CC2)n(-c2ccccc2)c1=O | i
CC(C)=CCc1c2c(c(O)c3c1OC1Oc4cc(O)ccc4C1(O)C3=O)C=CC(C)(C)O2 (centres undefined) | i
COc1ccc(Cl)cc1S(=O)(=O)NCCN1CCN(c2ccccc2F)CC1 | i
O=C(c1cccc(Br)c1)N1CCCSCC1CN1CCCC1 (centres undefined) | i
Cc1c(C(=O)Nc2ccc3oc(=O)ccc3c2)nnn1-c1cccc(Cl)c1 | i
CC(=O)Nc1ccc(Cl)cc1-c1nc2ccc(C)cc2[nH]c1=O | i
CC1=NN(CCNc2ccc(C)c(C)c2)c2nc3c(c(=O)n(C)c(=O)n3C)n2C1C (centres undefined) | i
Cc1cc(C(=O)NCC(C)(O)c2cccs2)c(C)o1 (centres undefined) | i
Cc1ccc(NC(=O)C(=O)NCC(O)(c2ccccc2)C2CC2)cc1N1CCCC1=O (centres undefined) | i
COc1ccc(-c2cc3c(SC)nccn3n2)cc1 | i
CSCC(C)(O)CNC(=O)C1CC1 (centres undefined) | i
CNC(=O)Cn1c(=O)n(-c2ccc(C)cc2)c(=O)c2oc3ccccc3c21 | i
CCc1cnc2c(c1SC)c(=O)n(C)c(=O)n2C | i
COc1ccc(S(=O)(=O)N(C)c2ccsc2C(=O)NCc2cccc(OC)c2)cc1 | i
O=C(NCC1CCN(C2CCCC2)CC1)NC12CC3CC(CC(C3)C1)C2 | i
O=C(NCc1cccs1)N1CCCC(c2nnc(-c3ccccc3F)s2)C1 (centres undefined) | i
Cc1nc(Nc2ccccn2)cc(N2CCN(C(=O)Nc3ccccc3)CC2)n1 | i
O=C(CN1CCN(Cc2nc3ccccc3n2Cc2ccccc2)CC1)Nc1nccs1 | i
CCOc1ccc(NC(=O)CCSc2nnc3scc(-c4ccccc4)n23)cc1 | i
CCS(=O)(=O)N1CCCc2cc(NS(=O)(=O)c3ccc(OC)c(F)c3)ccc21 | i
COCCNC(=O)c1nnn(-c2ccc(NC(=O)c3cccc(OC)c3)cc2)n1 | i
CCCCn1c(=O)[nH]c2c(C(=O)N3CCCCCC3)snc2c1=O | i
COc1ccc(-c2cc3nc(C)cc(NCCN4CCOCC4)n3n2)cc1OC | i
O=C(NCc1cnn2ccccc12)c1ccc2nc[nH]c2c1 | i
O=C(NCCc1ccoc1)C(=O)Nc1cc2c3c(c1)CCC(=O)N3CCC2 | i
CN(C)S(=O)(=O)c1ccc(C(=O)N2CCN(c3nnc(SCC(N)=O)s3)CC2)cc1 | i
CCOc1cccc2cc(C(=O)NCCCn3nc(-c4ccccc4)ccc3=O)c(=O)oc12 | i
COc1ccc2[nH]c3c(c(=O)c2c1)CN(CC(=O)Nc1ccccc1F)CC3 | i
COc1ccc(OC)c(N2CCn3c2nc2c3c(=O)n(Cc3ccccc3)c(=O)n2C)c1 | i
COc1ccc(CNC(=O)c2nnn(-c3ccc(Cl)cc3)c2-c2cccnc2)c(OC)c1 | i
CC(NS(=O)(=O)c1[nH]ncc1C(=O)O)c1ccccc1 (centres undefined) | i
CCOc1ccc(-c2csc(-n3nc(C)cc3NC(=O)c3ccc(F)cc3F)n2)cc1 | i
O=C(Nc1ccc(F)c(Cl)c1)C1CCN(c2ccc(-c3ccco3)nn2)CC1 | i
CCC(=O)N1CCCc2cc(NC(=O)c3ccc(OC(C)C)cc3)ccc21 | i
CC(=O)c1cccc(NC(=O)CCCCCn2nnc3ccccc3c2=O)c1 | i
O=C(NCc1ccc(C(=O)c2cccs2)s1)c1cc(-c2ccco2)on1 | i
Cc1cc(C(F)(F)F)nc(CCNC(=O)C2(c3cccs3)CCCC2)n1 | i
CCOC(=O)N1CCN(Cc2cc(=O)oc3cc(C)c(Cl)c(C)c23)CC1 | i
Cc1ccccc1-c1nc(CSc2nc3ccccc3c(=O)n2Cc2ccco2)c(C)o1 | i
Cc1ccc2c(Nc3ccc(S(C)(=O)=O)cc3)c(C(=O)N3CCSCC3)cnc2n1 | i
O=C(Cn1cnc2c(sc3cccc(F)c32)c1=O)Nc1ccc(F)cc1F | i
COc1cc(C(=O)Nc2ccc3c(c2)CCC(=O)N3CC(C)C)cc(OC)c1OC | i
CN1CCN(C(=NS(=O)(=O)c2ccc(F)cc2)c2ccccc2)CC1 | i
COc1ccc(OC)c(NC(=O)CSc2nc3c(sc4ncccc43)c(=O)n2CCC(C)C)c1 | i
COc1ccccc1C(=O)Nc1ccccc1NC(=O)C1CCN(S(C)(=O)=O)CC1 | i
CC(=O)NCCn1ncc2c(NCc3ccc(F)cc3)ncnc21 | i
COCCSc1nc(-c2ccccc2)cc(C(F)(F)F)c1C#N | i
COCC(=O)N1CCCc2ccc(NC(=O)c3cc(-c4ccccc4)nn3C)cc21 | i
Cc1noc(C2CN(Cc3cc(Br)cs3)C2)n1 | i

Next part; it opens with the 3 that closed the last part.
smiles | GIRK2 activ
COCCSc1nc(-c2ccccc2)cc(C(F)(F)F)c1C#N | i
COCC(=O)N1CCCc2ccc(NC(=O)c3cc(-c4ccccc4)nn3C)cc21 | i
Cc1noc(C2CN(Cc3cc(Br)cs3)C2)n1 | i
Cc1ccc2sc(N(Cc3ccccn3)C(=O)CN3C(=O)CCC3=O)nc2c1C | i
CN(C)C(CNC(=O)c1cc(-c2ccc(F)cc2)nn1C)c1ccccc1 (centres undefined) | i
O=C(c1ccccc1C(F)(F)F)N1CCC(Oc2ccc(Cl)cn2)CC1 | i
C=CCN1CC(c2nc3ccccc3n2C/C=C/c2ccccc2)CC1=O (centres undefined) | i
Cc1nc2c(c(=O)n1CC(=O)Nc1ccc(Cl)c(C(F)(F)F)c1)CCCC2 | i
COC(=O)c1ccccc1NC(=O)CSc1nccn1-c1cccc(C(=O)Nc2ccccc2)c1 | i
Cn1c(=O)c2c(ncn2CC(=O)N2CCC(Oc3ccc(C#N)cn3)CC2)n(C)c1=O | i
COc1ccc(-c2nc(CCNS(=O)(=O)c3ccc(F)cc3)cs2)cc1OC | i
COc1ccc(Nc2oc(-c3ccc(S(=O)(=O)N(C)C)cc3)nc2C#N)cc1 | i
CCCN1C(=O)CCc2cc(NC(=O)c3ccc(OC)cc3OC)ccc21 | i
Cc1noc(C2CN(Cc3ccc(Br)s3)C2)n1 | i
CC(C)=CCCC1(C)C=Cc2c(c(C)cc3c2[nH]c2cc(O)ccc23)O1 (centres undefined) | i
CCn1c(SCC(=O)Nc2cc(OC)ccc2OC)nc2c(-c3ccccc3)c[nH]c2c1=O | i
COc1ccc(Nc2n[nH]nc2C(=O)Nc2ccc(C)cc2Br)cc1 | i
CN(C)C(=O)c1cc(OCc2ccccc2)no1 | i
O=C(NCCCS(=O)(=O)N1CCc2ccccc2C1)c1ccc(F)c(F)c1 | i
CCOc1c(C)cc(S(=O)(=O)NC2CC(C)(C)NC(C)(C)C2)c(C)c1C | i
CCn1c(=NC(=O)CSCC(=O)N2CCN(c3ccccc3)CC2)sc2cc(F)ccc21 | i
Cc1cc(C(=O)N2CCN(Cc3nnnn3-c3ccc(F)cc3)CC2)no1 | i
COc1ccc(C2C(C(=O)c3sc(C)nc3C)=C(O)C(=O)N2CCCN(C)C)cc1 (centres undefined) | i
O=C(NC1CC(=O)N(C2CC2)C1)c1cccc(Cl)c1 (centres undefined) | i
CCC(C)NC(=O)Cn1c(C)nc2c(c1=O)CN(Cc1ccccc1)CC2 (centres undefined) | i
COc1ccc(CNC(=O)Nc2ccc3c(c2)CCCN3C(=O)c2ccccc2)cc1OC | i
COc1cc(C)c(S(=O)(=O)NCCn2nc(-c3ccccc3)ccc2=O)cc1C | i
O=C(CNC(=O)c1c[nH]c2ccccc12)NCc1cccs1 | i
O=C(Nc1ccccc1)N1CCN(c2ccc(-n3cccc3)nn2)CC1 | i
Cc1nnsc1C(=O)Nc1cccc(-c2nc3ccccc3[nH]2)c1 | i
Cc1ccc2c(c1)c(=O)c(-c1nc(-c3ccc4c(c3)OCO4)no1)cn2C | i
Cc1ccc(NC(=O)Cn2nc3ccc(C(=O)NCc4ccccc4)cn3c2=O)c(Br)c1 | i
O=C(NC1CCCC1)C1CCN(c2ncnc3c2sc2ncccc23)CC1 | i
COc1ccccc1OCC(=O)NCCCS(=O)(=O)N1CCN(c2ccccc2)CC1 | i
Cn1c(-c2ccc(Br)cc2)cnc1SCC(=O)N1CCCCC1 | i
Cc1[nH]c(=O)[nH]c(=O)c1CCc1nnc(SCc2ccccc2)o1 | i
O=C(COc1cccc2ccccc12)Nc1cc(N2CCCCC2)ncn1 | i
O=C(NCC(O)c1ccc2c(c1)CCO2)c1ccc(Cl)s1 (centres undefined) | i
COc1cccc(Oc2coc3cc(OS(C)(=O)=O)ccc3c2=O)c1 | i
COc1cccc(-n2c(SCc3nc(-c4ccc5c(c4)OCO5)no3)nc3ccsc3c2=O)c1 | i
C#CCN1C(=O)CC(c2cccs2)CC1=O | i
O=C(C(=O)N(Cc1ccccc1)Cc1ccccc1)c1cn(CC(=O)N2CCOCC2)c2ccccc12 | i
Cc1ccc2[nH]c3c(=O)n(CCC(=O)N4CCN(Cc5ccc6c(c5)OCO6)CC4)cnc3c2c1 | i
CCOC(=O)c1cccc(NC(=O)c2sccc2S(=O)(=O)N(C)c2ccc(OC)cc2)c1 | i
CC(C)(Oc1ccc(Cl)cc1)C(=O)N1CCc2nc(NC(=O)c3ccco3)sc2C1 | i
COC(=O)c1ccccc1NC(=O)Cn1cccc(-c2nc(-c3ccc(OC)c(OC)c3)no2)c1=O | i
Cc1ccc(NC(=O)c2ccc([N+](=O)[O-])cc2Cl)cc1N1CCCC1=O | i
O=C(Nc1ccc([N+](=O)[O-])cc1Cl)c1ccc(N2C(=O)c3ccccc3C2=O)cc1 | i
COc1cc(C2c3c(oc4ccccc4c3=O)C(=O)N2CCN(C)C)cc(OC)c1OC (centres undefined) | i
CN(C)C(CNS(=O)(=O)c1ccc(N2CCCCS2(=O)=O)cc1)c1ccccc1 (centres undefined) | i
CCOC(=O)NCC1CCN(S(=O)(=O)c2cccnc2)CC1 | i
COc1ccc(CNC(=O)C2CCN(c3nc4ccsc4c(=O)n3Cc3ccccc3)CC2)cc1 | i
CC(=O)Cn1c(=O)c2c(nc3n(-c4ccc(C)c(C)c4)c(C)cn23)n(C)c1=O | i
O=C(OC1CN(c2nc3ccc(F)cc3s2)C1)c1cc(=O)c2ccccc2o1 | i
COCCCn1c(=O)c2ccccc2n(Cc2nc(-c3ccc(Cl)cc3)no2)c1=O | i
CSc1cccc(NC(=O)C(=O)NCCC(O)c2cccc3ccccc23)c1 (centres undefined) | i
CC(C)CCNC(=O)COc1ccc2c(c1)C(=O)CC2 | i
Cc1cccc(N2CCN(Cc3nc(-c4ccc(N5CCCC(C)C5)nc4)no3)CC2)c1C (centres undefined) | i
COc1ccc(CC(=O)NCC2(O)CCOc3ccccc32)cc1OC (centres undefined) | i
COc1nn(C)cc1C(=O)Nc1nnc(C2CC(=O)N(c3ccccc3)C2)o1 (centres undefined) | i
CCOc1ccccc1NC(=O)Cn1c(C)cc(C)c(-c2nc(-c3ccccc3)no2)c1=O | i
C#CCOCC1CCN(C(=O)NCc2ccccc2)CC1 | i
CSc1ccccc1CN1CCC(CNC(=O)C2(c3ccccc3)CCOCC2)CC1 | i

Some of these compounds in order of heavy-atom count, descending.
smiles | GIRK2 activ
COc1ccc(CNC(=O)C2CCN(c3nc4ccsc4c(=O)n3Cc3ccccc3)CC2)cc1 | i
Cc1cccc(N2CCN(Cc3nc(-c4ccc(N5CCCC(C)C5)nc4)no3)CC2)c1C (centres undefined) | i
CCOC(=O)c1cccc(NC(=O)c2sccc2S(=O)(=O)N(C)c2ccc(OC)cc2)c1 | i
CSc1cccc(NC(=O)C(=O)NCCC(O)c2cccc3ccccc23)c1 (centres undefined) | i
COc1ccc(CC(=O)NCC2(O)CCOc3ccccc32)cc1OC (centres undefined) | i
CCOC(=O)NCC1CCN(S(=O)(=O)c2cccnc2)CC1 | i
CC(C)CCNC(=O)COc1ccc2c(c1)C(=O)CC2 | i

Carrying on:
smiles | GIRK2 activ
CCOc1ccc(-n2cc(C(=O)N3CCC(NC(=O)c4ccc(C)cc4)CC3)nn2)cc1 | i
CCSc1nnc(NC(=O)CN(C)c2nc3c(C)ccc(C)c3s2)s1 | i
CN(C)c1cccc(C(=O)N2CCC(c3cccs3)CC2)c1 | i
CCNc1cc(NCCNC(=O)COc2ccccc2)nc(C)n1 | i
O=C(NCC1CCN(c2ccccn2)CC1)c1nc2ccccc2s1 | i
C=C(C)C1CCC2(C(=O)O)CCC3(C)C(CCC4C5(C)C(C=O)C(O)C(C)(C)C5CCC43C)C12 (centres undefined) | i

An excerpt, so the mix of outcomes need not match the whole.
